Vaccinia inh = blocks a specific stage of Vaccinia orthopoxvirus infection, primary screen, cell-based, single point; Vaccinia-infected cells, mCherry/Venus stage reporter fluorescence; stronger effect = lower value; some inactives read as strong as hits; activity change (mCherry), % (test concentration not listed); 89,000 tested, 0.01% active;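 active = mCherry past -33% and 40 or more points under the early reporter, replicates agreeing; inconclusive = past -33% without that gap or agreement; tested in A549 cells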;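 also: scaled between vehicle wells and reference inhibitor wells; 23 nL library stock went into each well; one replicate is shown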
Vaccinia inh Venus = second read-out of Vaccinia inh, no call of its own (marks repeat the call); activity change (Venus), %; measured here: Venus reporter, other viral stage;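 negative = less Venus signal; first of two replicates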
An asterisk follows results filed as active; u = inconclusive; x = not tested or not shown.

SMILES | Vaccinia inh | Vaccinia inh Venus
CO[C@@H]1CN(C)C(=O)c2cc(NC(=O)C3CC3)ccc2OC[C@@H](C)N(C(=O)Nc2ccc(C(F)(F)F)cc2)C[C@H]1C | u | x
CC(C)NC(=O)N(C)C[C@H]1Oc2ccc(NC(=O)C3CC3)cc2CC(=O)N([C@H](C)CO)C[C@@H]1C | 7.9 | 2.3
CCCC#Cc1cnc2c(c1)C(=O)N([C@H](C)CO)C[C@H](C)[C@H](CN(C)C(=O)Nc1ccccc1OC)O2 | 8.2 | 8.3
CCCC#Cc1ccc([C@H]2[C@H](CO)N3C(=O)CN(C(=O)c4cccnc4)C[C@@H]23)cc1 | -1.1 | -0.8
C[C@H]1CN([C@@H](C)CO)C(=O)Cc2cc(NS(=O)(=O)c3cn(C)cn3)ccc2O[C@H]1CN(C)Cc1ccccc1 | 0.5 | -1.3
COCC(=O)Nc1ccc2c(c1)C(=O)N(C)[C@H]1CC[C@H](CC(=O)NCc3ccccc3)O[C@H]1CO2 | 9.6 | 12.1
C[C@@H]1CN([C@H](C)CO)C(=O)c2cc(NC(=O)Cc3cn(C)c4ccccc34)ccc2O[C@H]1CN(C)Cc1ccncc1 | 4.5 | 4.2
Cc1noc(C)c1NC(=O)Nc1ccc2c(c1)CC(=O)N([C@H](C)CO)C[C@@H](C)[C@H](CN(C)Cc1ccncc1)O2 | 18.5 | 4.4
O=C(C1CCCC1)N1[C@H](CO)[C@@H](c2ccccc2)C12CN(CCC(F)(F)F)C2 | -1.5 | 11.3
C[C@H](CO)N1C[C@H](C)[C@H](CN(C)C)Oc2cc(C#CC(C)(C)O)ccc2S1(=O)=O | 14.9 | 14.3
C[C@H]1CN([C@@H](C)CO)C(=O)c2cc(C#Cc3ccccc3)cnc2O[C@H]1CN(C)C(=O)c1ccccc1 | -13.3 | -18.0
CN1C(=O)c2cc(NC(=O)c3ccc(F)c(F)c3)ccc2OC[C@@H]2O[C@@H](CC(=O)N[C@@H]3CCN(Cc4ccccc4)C3)CC[C@H]21 | u | x
CO[C@H]1CN(C)C(=O)c2cc(NC(=O)C3CCOCC3)ccc2OC[C@H](C)NC[C@@H]1C | 10.4 | 1.7
CNC[C@H]1Oc2ccc(NC(=O)Nc3ccccc3)cc2C(=O)N([C@H](C)CO)C[C@H]1C | 10.8 | 6.3
CCS(=O)(=O)N1CCC2(CC1)CN(Cc1ccc3c(c1)OCO3)[C@H](CO)c1[nH]c3cc(OC)ccc3c12 | -20.3 | -10.6
CCC(=O)N(C)C[C@@H]1Oc2ncc(-c3ccc(C)cc3)cc2C(=O)N([C@@H](C)CO)C[C@H]1C | 16.0 | 8.6
CC(C)NC(=O)Nc1ccc2c(c1)C(=O)N(C)[C@H]1CC[C@H](CC(=O)Nc3ccccc3Cl)O[C@@H]1CO2 | -1.5 | 0.8
COc1ccc(NC(=O)N(C)C[C@@H]2Oc3ncc(-c4cccnc4)cc3C(=O)N([C@H](C)CO)C[C@H]2C)cc1 | 4.8 | 17.7
COCC(=O)N1CCC2(CC1)CN[C@H](CO)c1c2c2ccc(OC)cc2n1C | -9.0 | -3.5
C[C@H]1CN([C@@H](C)CO)C(=O)CCCn2nncc2CO[C@H]1CN(C)S(=O)(=O)c1ccc(-n2cccn2)cc1 | 14.1 | 11.1
Cc1ccc(S(=O)(=O)Nc2ccc3c(c2)C(=O)N([C@@H](C)CO)C[C@@H](C)[C@@H](CN(C)Cc2ccc(C(=O)O)cc2)O3)cc1 | 11.4 | 6.4
CC(C)NC(=O)N(C)C[C@@H]1OCCCC[C@@H](C)Oc2ccc(NC(=O)CCC(F)(F)F)cc2C(=O)N([C@H](C)CO)C[C@@H]1C | 36.3 | 10.9
CO[C@@H]1CN(C)C(=O)c2ccc(NC(=O)C3CCCCC3)cc2OC[C@H](C)N(C)C[C@H]1C | -1.2 | 0.6
COc1ccc(NC(=O)N(C)C[C@H]2Oc3c(NS(=O)(=O)c4cccs4)cccc3C(=O)N([C@@H](C)CO)C[C@@H]2C)cc1 | 5.1 | 6.1
C[C@@H]1CCCCO[C@H](CN(C)S(=O)(=O)c2ccccc2)[C@H](C)CN([C@H](C)CO)C(=O)c2cc(NC(=O)Nc3cccc4ccccc34)ccc2O1 | 29.6 | 21.8
O=C(C1CCC1)N1CC(=O)N2[C@@H](CO)[C@@H](c3ccc(C#CCc4ccccc4)cc3)[C@@H]2C1 | 2.1 | 0.4
O=C(C[C@H]1CC[C@@H]2[C@H](COC[C@H](O)CN2Cc2cccc(C(F)(F)F)c2)O1)NCc1ccccc1 | -22.4 | -15.2
C[C@@H]1CN([C@H](C)CO)C(=O)c2cccc(NC(=O)c3nc4ccccc4s3)c2O[C@@H]1CN(C)CC1CC1 | -21.4 | -14.0
C[C@H](CO)N1C[C@H](C)[C@H](CN(C)S(=O)(=O)c2ccc(Cl)cc2)Oc2ccc(NC(=O)C3CC3)cc2C1=O | -3.9 | 2.4
O=C(c1cnccn1)N1CC(=O)N2[C@H](CO)[C@@H](c3ccc(-c4ccc(F)cc4)cc3)[C@@H]2C1 | -6.7 | -5.1
CC=Cc1ccc2n(c1=O)C[C@H]1[C@H](CO)[C@@H](C(=O)N(C)C)[C@@H]2N1CC1CCCC1 (mixture of isomers) | 2.6 | -2.0
C[C@H]1CN([C@@H](C)CO)C(=O)c2cc(NC(=O)CCCN(C)C)ccc2O[C@@H]1CN(C)Cc1ccc2c(c1)OCO2 | 22.4 | 7.5
O=C(NCC[C@H]1CC[C@@H](NS(=O)(=O)c2cccc(Cl)c2)[C@@H](CO)O1)c1cnccn1 | -13.7 | -5.4
C[C@@H]1CN([C@@H](C)CO)C(=O)c2cc(NC(=O)C3CCCCC3)ccc2O[C@H]1CN(C)C(=O)Nc1cccc2ccccc12 | 16.8 | 7.2
CO[C@@H]1CN(C)C(=O)c2cc(NS(C)(=O)=O)ccc2OC[C@@H](C)N(C(=O)C2CCCC2)C[C@@H]1C | -0.8 | -1.3
C[C@@H]1CN([C@@H](C)CO)C(=O)c2cc(NC(=O)Nc3ccccc3)ccc2O[C@@H]1CN(C)S(=O)(=O)c1ccccc1 | -8.3 | 6.7
CC(=O)N1[C@H](CN(CC2CCC2)C(=O)CN(C)C)[C@@H](c2ccccc2)[C@@H]1CO | 6.6 | 10.1
CO[C@H]1CN(C)C(=O)c2cc(NC(=O)c3ccccc3)ccc2OC[C@H](C)N(C(=O)C2CC2)C[C@H]1C | 0.6 | 3.2
C[C@@H](NC(=O)C[C@H]1C[C@H]2c3cc(NC(=O)c4cccnc4)ccc3O[C@H]2[C@@H](CO)O1)c1ccccc1 | -11.0 | 1.7
C[C@@H]1CN([C@@H](C)CO)S(=O)(=O)c2ccc(-c3cccnc3)cc2O[C@@H]1CN(C)C(=O)NC1CCCC1 | 7.0 | 8.0

A draw from above in order of formula weight, highest first.
SMILES | Vaccinia inh | Vaccinia inh Venus
C[C@@H]1CN([C@@H](C)CO)C(=O)c2cc(NC(=O)Nc3ccccc3)ccc2O[C@@H]1CN(C)S(=O)(=O)c1ccccc1 | -8.3 | 6.7
C[C@@H](NC(=O)C[C@H]1C[C@H]2c3cc(NC(=O)c4cccnc4)ccc3O[C@H]2[C@@H](CO)O1)c1ccccc1 | -11.0 | 1.7
O=C(NCC[C@H]1CC[C@@H](NS(=O)(=O)c2cccc(Cl)c2)[C@@H](CO)O1)c1cnccn1 | -13.7 | -5.4
CC=Cc1ccc2n(c1=O)C[C@H]1[C@H](CO)[C@@H](C(=O)N(C)C)[C@@H]2N1CC1CCCC1 (mixture of isomers) | 2.6 | -2.0

Already shown: entries from further up.
SMILES | Vaccinia inh | Vaccinia inh Venus
CO[C@H]1CN(C)C(=O)c2cc(NC(=O)c3ccccc3)ccc2OC[C@H](C)N(C(=O)C2CC2)C[C@H]1C | 0.6 | 3.2
C[C@@H](NC(=O)C[C@H]1C[C@H]2c3cc(NC(=O)c4cccnc4)ccc3O[C@H]2[C@@H](CO)O1)c1ccccc1 | -11.0 | 1.7
C[C@@H]1CN([C@@H](C)CO)S(=O)(=O)c2ccc(-c3cccnc3)cc2O[C@@H]1CN(C)C(=O)NC1CCCC1 | 7.0 | 8.0

Later entries.
SMILES | Vaccinia inh | Vaccinia inh Venus
C[C@H]1CCCCO[C@H](CN(C)C(=O)c2ccccc2)[C@@H](C)CN([C@@H](C)CO)C(=O)c2cc(NC(=O)Nc3ccc(F)cc3)ccc2O1 | -8.1 | -7.9
O=C(C[C@H]1CC[C@@H]2[C@H](COC[C@@H](O)CN2Cc2cccc(F)c2)O1)NCCc1ccncc1 | 7.0 | 4.7
CCCNC(=O)N1C[C@@H](O)COC[C@H]2O[C@@H](CC(=O)N3CCOCC3)CC[C@@H]21 | 9.6 | -0.5
C[C@@H]1CN([C@@H](C)CO)C(=O)c2cc(NC(=O)Nc3ccc(C(F)(F)F)cc3)ccc2O[C@@H](C)CCCCO[C@@H]1CN(C)Cc1ccncc1 | -18.5 | -7.9
C[C@@H]1CCCCO[C@@H](CN(C)S(=O)(=O)c2ccc(Cl)cc2)[C@H](C)CN([C@@H](C)CO)C(=O)c2cc(NC(=O)Nc3ccc4c(c3)OCO4)ccc2O1 | -2.7 | 4.0
COc1ccccc1CNC(=O)C[C@@H]1C[C@@H]2c3cc(NS(C)(=O)=O)ccc3O[C@@H]2[C@@H](CO)O1 | -1.0 | -5.2
C[C@H](CO)N1C[C@H](C)[C@H](CN(C)C(=O)Nc2ccc(C(F)(F)F)cc2)OCCCC[C@H](C)Oc2ccc(NC(=O)C3CCCCC3)cc2C1=O | -17.6 | -8.0
CCC(=O)N1C[C@H](O)COC[C@H]2O[C@@H](CC(=O)NCC3CCCCC3)CC[C@@H]21 | 14.4 | 7.1
C[C@H]1CN([C@@H](C)CO)C(=O)c2cccc(NC(=O)CCCCCC(=O)Nc3ccccc3N)c2O[C@@H]1CN(C)C(=O)Nc1ccc2c(c1)OCO2 | -7.7 | -2.9
O=C(C[C@@H]1C=C[C@@H](NC(=O)CN2CCOCC2)[C@H](CO)O1)NCCc1ccncc1 | 11.0 | 10.9
C[C@@H]1CN([C@@H](C)CO)S(=O)(=O)c2ccc(Br)cc2O[C@H]1CN(C)C(=O)CC1CC1 | 4.0 | -3.9
C[C@H](O)C#Cc1cnc2c(c1)C(=O)N([C@H](C)CO)C[C@@H](C)[C@@H](CN(C)C(=O)c1ccccc1)O2 | 12.7 | 3.7
CCCC(=O)N1CC2(CN(C)C2)c2c(n(C)c3cc(OC)ccc23)[C@H]1CO | -12.0 | -10.9
COc1cccc(C(=O)Nc2ccc3c(c2)C(=O)N(C)[C@H]2CC[C@@H](CC(=O)N[C@@H](C)c4ccccc4)O[C@@H]2CO3)c1 | u | x
C[C@@H]1CN([C@H](C)CO)C(=O)c2cc(NC(=O)c3ccncc3)ccc2O[C@@H]1CN(C)C(=O)Nc1ccc(F)cc1 | 1.3 | 0.1
COc1cccc(C#Cc2ccc([C@@H]3[C@@H](CO)N4C(=O)CN(C(=O)Cc5cccnc5)C[C@H]34)cc2)c1 | u | x
C[C@@H](NC(=O)C[C@H]1CC[C@H](NC(=O)c2cccnc2)[C@H](CO)O1)c1ccccc1 | -3.8 | 2.7
CCS(=O)(=O)NC[C@@H]1[C@@H](c2ccccc2)[C@@H](CO)N1CC1CCCCC1 | 2.9 | -1.6
C[C@@H]1CN([C@@H](C)CO)C(=O)c2cccc(NC(=O)C3CCCCC3)c2O[C@@H]1CN(C)Cc1ccc(C(=O)Nc2ccccc2N)cc1 | -23.9 | -14.9
CCNC(=O)[C@H]1[C@H](CO)[C@H]2Cn3c(ccc(/C=C/c4ccccc4)c3=O)[C@H]2N1C(=O)C1CC1 | 1.9 | 5.4
C[C@H](NC(=O)C[C@H]1CC[C@H]2[C@@H](COC[C@@H](O)CN2Cc2cc(F)ccc2F)O1)c1ccccc1 | -13.7 | -9.9
C[C@H]1CN([C@@H](C)CO)C(=O)Cc2cc(NC(=O)Cn3cnnn3)ccc2O[C@@H]1CN(C)S(=O)(=O)c1cccs1 | 21.8 | 13.9
COCC#Cc1ccc2c(c1)O[C@@H](CN(C)C(=O)CN(C)C)[C@H](C)CN([C@H](C)CO)S2(=O)=O | 25.1 | 13.8
C[C@H](CO)N1C[C@H](C)[C@@H](CN(C)C(=O)Nc2cc(F)ccc2F)Oc2cc(-c3ccc(C#N)cc3)ccc2S1(=O)=O | -34.8 | -25.9
C[C@H](CO)N1C[C@H](C)[C@H](CN(C)Cc2ccc(C(=O)Nc3ccccc3N)cc2)Oc2ccc(NC(=O)CCC(F)(F)F)cc2C1=O | 8.2 | 0.5
COc1ccc(S(=O)(=O)Nc2cccc3c2O[C@@H](CN(C)C(=O)Nc2cccc4ccccc24)[C@H](C)CN([C@@H](C)CO)C3=O)cc1 | 14.2 | 8.6
CC(C)CC#Cc1cnc2c(c1)C(=O)N([C@@H](C)CO)C[C@@H](C)[C@@H](CN(C)C(=O)NC1CCCC1)O2 | -4.4 | -6.3
O=C(CC1CC1)N1CC(=O)N2[C@H](CO)[C@H](c3ccc(-c4cccnc4)cc3)[C@H]2C1 | 4.3 | 2.6
Cc1noc(C)c1NC(=O)N(C)C[C@H]1Oc2ncc(C#CC3CC3)cc2C(=O)N([C@H](C)CO)C[C@H]1C | 26.9 | 17.3
CO[C@@H]1CN(C)C(=O)c2ccc(NS(=O)(=O)c3ccccc3)cc2OC[C@H](C)N(Cc2nccs2)C[C@H]1C | 11.1 | 2.6
CN(C)C(=O)[C@H]1[C@H](CO)[C@H]2Cn3c(ccc(C4=CCCC4)c3=O)[C@H]2N1C(=O)Cc1cccnc1 | 3.0 | 5.6
C[C@@H]1CN([C@@H](C)CO)C(=O)c2cc(/C=C/c3ccccc3)cnc2O[C@@H]1CN(C)C(=O)c1cnccn1 | 12.4 | 6.4

High-throughput results deposited in PubChem BioAssay by Broad Institute.

Only part of the results is shown. The share of hits here may be higher or lower than overall.
